Hsc70 ATP site – Hsc70 inhibitors, probe displacement, primary screen, biochemical, fluorescence polarization (AID 568); Hsc70 fluorescence polarization, probe displacement; higher % means a stronger effect; strong numbers were not always called active; displacement, % at 20 µM; hits with a dose series show IC50 in µM; 83,000 tested, under 10 active;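 active = displacement above 50% without optical interference and an IC50 on retest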;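 note: ATPase domain with a fluorescein-tagged ATP probe; 0% = vehicle and 100% = excess ADP; read after one hour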
MT1-MMP reporter – inhibitors of MT1-MMP promoter transcription, cell-based, luciferase reporter, luminescence (AID 618); MT1-MMP promoter luciferase reporter cells, luminescence; hit rate 0.62% among 87,000; calls from a first round at 10 µM; hits with a dose series show EC50 in µM;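 active = over half of the reporter light lost at 10 µM or EC50 under 50 µM; inactive = the rest and hits that failed the dose series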;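 note: actives suppress MT1-MMP promoter-driven transcription so potencies describe inhibitors; HT1080 fibrosarcoma cells; overnight exposure; toxic or luciferase-blocking compounds were not removed from the actives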
WNV protease inh – blocks West Nile virus NS2B-NS3 protease activity | z-score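 (tested at a level between 10 and 100 µM)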 | hit rate 0.18% among 65,000 | AID 577 | WNV NS2B-NS3 protease, fluorogenic substrate Ex360/Em465; hits give low values;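 active = z-score at -3 or under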;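 note: score is relative to mean and spread of the compound wells of a plate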
Target sequence (P06935 1371-1501 limits assumed): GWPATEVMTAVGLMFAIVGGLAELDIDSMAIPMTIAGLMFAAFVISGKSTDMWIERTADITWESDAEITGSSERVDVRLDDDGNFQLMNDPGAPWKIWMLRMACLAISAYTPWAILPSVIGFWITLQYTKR
Target sequence (P06935 1502-1679 limits assumed): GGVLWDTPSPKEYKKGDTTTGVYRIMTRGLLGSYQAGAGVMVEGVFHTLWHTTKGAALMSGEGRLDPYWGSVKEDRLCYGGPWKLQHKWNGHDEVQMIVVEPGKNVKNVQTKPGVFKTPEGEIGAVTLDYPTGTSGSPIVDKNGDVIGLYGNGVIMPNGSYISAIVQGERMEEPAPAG
Numbers without * were called inactive. The list is partial, so the mix of outcomes need not match the whole.

Results for CCC(c1nnnn1Cc1ccc(F)cc1)N1CCN(C2CCCCC2)CC1 (stereo unspecified) ?
Hsc70 ATP site: 1.4%; MT1-MMP reporter: inactive; WNV protease inh: -1.1

How did Cc1ccc(-c2nc(C#N)c(NCc3ccco3)o2)cc1 do in these assays?
Hsc70 ATP site: -10%; MT1-MMP reporter: inactive; WNV protease inh: 0.98

How did COc1ccc(-c2nc(Cn3c(SCc4cccc(F)c4)nc4ccncc43)c(C)o2)cc1OC do in these assays?
Hsc70 ATP site: 2.6%; MT1-MMP reporter: inactive; WNV protease inh: 1.6

What do the screens show for `CCc1ccc(NC(=O)N(Cc2ccco2)C(C)c2cccs2)cc1` (stereo unspecified)?
Hsc70 ATP site: -0.2%; MT1-MMP reporter: inactive

What do the screens show for `CN(C=O)CP(=O)(O)CCN1CCCC1=O`?
Hsc70 ATP site: -2.0%; MT1-MMP reporter: inactive; WNV protease inh: -1

Results for COc1ccc(CCNC(=O)COC(=O)c2ccco2)cc1OC ?
Hsc70 ATP site: 1.0%; MT1-MMP reporter: inactive; WNV protease inh: 0.49

How did Cc1nn(C)c(C)c1CN(C)S(=O)(=O)c1ccc2ccccc2c1 do in these assays?
Hsc70 ATP site: 1.3%; MT1-MMP reporter: inactive

Results for COc1ccc(NC(=O)CCc2ccccc2)cc1NC(=O)c1ccco1 ?
Hsc70 ATP site: 2.0%; MT1-MMP reporter: inactive; WNV protease inh: -0.78

What do the screens show for `COc1ccccc1N=c1scc(-c2ccc3c(c2)NC(=O)CO3)n1CC1CCCO1` (stereo unspecified)?
Hsc70 ATP site: -5.4%; MT1-MMP reporter: inactive; WNV protease inh: -1.8

Results for O=C(COc1c(F)c(F)cc(F)c1F)NC(=O)NC1CCCC1 ?
Hsc70 ATP site: -6.8%; MT1-MMP reporter: inactive; WNV protease inh: 0.03

Results for CC(Sc1cnc2ccccc2n1)C(=O)O (stereo unspecified) ?
Hsc70 ATP site: 4.0%; MT1-MMP reporter: inactive

What do the screens show for `Cc1ccc(SCCC(=O)OCC(=O)Nc2ncc(Cl)cc2Cl)cc1`?
Hsc70 ATP site: -2.4%; MT1-MMP reporter: inactive

What do the screens show for `Cc1ccc2[nH]cc(C(=O)CN3CCN(c4ccccc4F)CC3)c2c1`?
Hsc70 ATP site: 0.8%; MT1-MMP reporter: inactive

How did NC(=O)c1ccccc1NS(=O)(=O)Cc1ccc(Cl)cc1 do in these assays?
Hsc70 ATP site: -3.9%; MT1-MMP reporter: inactive; WNV protease inh: 0.43

What do the screens show for `CCc1c(C)nc2ncnn2c1Nc1ccc(C(C)=O)cc1`?
Hsc70 ATP site: 0.7%; MT1-MMP reporter: inactive

Continued (five carried over from the part before).
Results for CC(Sc1cnc2ccccc2n1)C(=O)O (stereo unspecified) ?
Hsc70 ATP site: 4.0%; MT1-MMP reporter: inactive

What do the screens show for `Cc1ccc(SCCC(=O)OCC(=O)Nc2ncc(Cl)cc2Cl)cc1`?
Hsc70 ATP site: -2.4%; MT1-MMP reporter: inactive

What do the screens show for `Cc1ccc2[nH]cc(C(=O)CN3CCN(c4ccccc4F)CC3)c2c1`?
Hsc70 ATP site: 0.8%; MT1-MMP reporter: inactive

How did NC(=O)c1ccccc1NS(=O)(=O)Cc1ccc(Cl)cc1 do in these assays?
Hsc70 ATP site: -3.9%; MT1-MMP reporter: inactive; WNV protease inh: 0.43

What do the screens show for `CCc1c(C)nc2ncnn2c1Nc1ccc(C(C)=O)cc1`?
Hsc70 ATP site: 0.7%; MT1-MMP reporter: inactive

How did CC(C)C(CCN1C(=O)CCC1=O)C1CCOC(C)(C)C1 (stereo unspecified) do in these assays?
Hsc70 ATP site: 0.3%; MT1-MMP reporter: inactive

How did CCCC(=O)C1CCN(Cc2ccccc2)CC1 do in these assays?
Hsc70 ATP site: 0.7%; MT1-MMP reporter: inactive

Results for O=C(Cn1ccc2ccccc2c1=O)NCCC(=O)N1CCN(C(=O)c2ccco2)CC1 ?
Hsc70 ATP site: 5.7%; MT1-MMP reporter: inactive; WNV protease inh: 0.28

What do the screens show for `CCOc1cc(C2C(C(=O)c3ccc(C)o3)=C(O)C(=O)N2CCc2ccccc2)ccc1O` (stereo unspecified)?
Hsc70 ATP site: -4.1%; MT1-MMP reporter: inactive; WNV protease inh: 1.7

Results for CCn1c(SCC(=O)NCc2ccco2)nc2c1c(=O)n(C)c(=O)n2C ?
Hsc70 ATP site: -2.9%; MT1-MMP reporter: inactive; WNV protease inh: -0.0019

What do the screens show for `Cc1nc2nc(-c3ccc(Cl)cc3)[nH]n2c(=O)c1Cc1ccccc1`?
Hsc70 ATP site: -0.5%; MT1-MMP reporter: inactive

How did Nc1nonc1OCCc1ccccc1 do in these assays?
Hsc70 ATP site: -5.0%; MT1-MMP reporter: inactive; WNV protease inh: 0.8

What do the screens show for `COc1ccccc1CN1CCN(S(=O)(=O)c2ccccc2)CC1`?
Hsc70 ATP site: 3.1%; MT1-MMP reporter: inactive

What do the screens show for `CC1(C)CC(=O)c2cc(C(=O)NCc3ccco3)c(=O)n(-c3ccccc3)c2C1`?
Hsc70 ATP site: -2.8%; MT1-MMP reporter: inactive; WNV protease inh: -0.46

What do the screens show for `COc1ccc(NC(=S)N/C(=N/CS(=O)(=O)c2ccccc2)c2ccccc2)cc1`?
Hsc70 ATP site: 2.3%; MT1-MMP reporter: inactive

Results for O=c1oc2c3c4c(cc2c(C(F)(F)F)c1CCN1CCOCC1)CCCN4CCC3 ?
Hsc70 ATP site: -40%; MT1-MMP reporter: inactive; WNV protease inh: -0.11

How did CCSc1nnc(NC(NC(=O)c2ccco2)(C(F)(F)F)C(F)(F)F)s1 do in these assays?
Hsc70 ATP site: 2.2%; MT1-MMP reporter: inactive; WNV protease inh: 1.6

What do the screens show for `CCOCCOC(=O)C1=C(C)N(C)C(=O)NC1c1cc(Cl)c(O)c(OC)c1` (stereo unspecified)?
Hsc70 ATP site: 1.8%; MT1-MMP reporter: inactive; WNV protease inh: -0.21

What do the screens show for `CCOC(=O)c1ccc(NC(=O)CSc2nnc(-c3cccs3)n2CC)cc1`?
Hsc70 ATP site: -4.9%; MT1-MMP reporter: inactive; WNV protease inh: 0.04

What do the screens show for `O=C(CSc1nc2cc(Cl)ccc2o1)N1CCOCC1`?
Hsc70 ATP site: -7.8%; MT1-MMP reporter: inactive; WNV protease inh: 0.39

How did O=C(CS(=O)(=O)c1ccccc1)c1ccc2c(c1)OCCO2 do in these assays?
Hsc70 ATP site: 2.1%; MT1-MMP reporter: inactive; WNV protease inh: -0.66

What do the screens show for `Cc1noc(C)c1CSCC(=O)OCC(=O)Nc1sccc1C#N`?
Hsc70 ATP site: -1.1%; MT1-MMP reporter: inactive; WNV protease inh: -0.7

What do the screens show for `O=C1c2cccnc2C(=O)N1c1cccc(-c2nc3ccccc3o2)c1`?
Hsc70 ATP site: -1.5%; MT1-MMP reporter: inactive; WNV protease inh: 0.33

How did COCCOC(=O)c1c(C)oc2ccc(O)c(CN3CCC(C)CC3)c12 do in these assays?
Hsc70 ATP site: -8.9%; MT1-MMP reporter: inactive; WNV protease inh: -0.63

How did CCCCC1CC1C(=O)Nc1ncc2c(n1)CC(C)(C)CC2=O (stereo unspecified) do in these assays?
Hsc70 ATP site: -1.0%; MT1-MMP reporter: inactive; WNV protease inh: -2.1

What do the screens show for `Cc1ccccc1OCC(O)Cn1c(SC(C)C)nc2c1c(=O)[nH]c(=O)n2C` (stereo unspecified)?
Hsc70 ATP site: -4.2%; MT1-MMP reporter: inactive; WNV protease inh: 0.25

What do the screens show for `CCn1cc(C(=O)NCC(=O)OC)c2cc(OC)c(OC)cc2c1=O`?
Hsc70 ATP site: 3.9%; MT1-MMP reporter: inactive; WNV protease inh: 2.3

Results for CCOc1ccc(CCNC(=O)CN(C)S(=O)(=O)c2cccc3nsnc23)cc1OCC ?
Hsc70 ATP site: 3.8%; MT1-MMP reporter: inactive; WNV protease inh: -1.4

How did O=C(Nc1ccc(SC(F)F)cc1)c1ccc2nccnc2c1 do in these assays?
Hsc70 ATP site: -2.0%; MT1-MMP reporter: inactive; WNV protease inh: -0.13

What do the screens show for `O=C(CCc1nc2ccccc2[nH]1)Nc1ccc2c(c1)OCCO2`?
Hsc70 ATP site: 4.1%; MT1-MMP reporter: inactive; WNV protease inh: 1.3

What do the screens show for `CN(C)C(=O)N1CCN(C(=O)c2ccco2)CC1`?
Hsc70 ATP site: 6.9%; MT1-MMP reporter: inactive; WNV protease inh: 0.73

What do the screens show for `Cc1ccc(-n2[nH]c(C)c(C=Nc3cc(C)ccn3)c2=O)cc1`?
Hsc70 ATP site: -1.1%; MT1-MMP reporter: inactive; WNV protease inh: 0.67

What do the screens show for `COc1cccc(NC(=O)c2ccc(NC(C)=O)cc2)c1`?
Hsc70 ATP site: 0.3%; MT1-MMP reporter: inactive

How did CCC1CCCCN1S(=O)(=O)c1ccc2c(c1)CCN2C(=O)C1CCC1 (stereo unspecified) do in these assays?
Hsc70 ATP site: -10%; MT1-MMP reporter: inactive; WNV protease inh: -0.22

What do the screens show for `O=C(CCC(=O)c1ccc[nH]1)c1ccc(Cl)cc1`?
Hsc70 ATP site: -5.5%; MT1-MMP reporter: inactive; WNV protease inh: -0.78

Results for COC(=O)c1sc(NC(=O)CC(C)C)c(C(=O)OC)c1C ?
Hsc70 ATP site: 0.3%; MT1-MMP reporter: inactive

What do the screens show for `COc1cccc(N(CC(=O)Nc2cccc(C(C)=O)c2)S(C)(=O)=O)c1`?
Hsc70 ATP site: 2.0%; MT1-MMP reporter: inactive; WNV protease inh: -0.7

How did CCCCOc1ccccc1NC(=O)C=C(C)C do in these assays?
Hsc70 ATP site: -1.1%; MT1-MMP reporter: inactive; WNV protease inh: 0.81

How did CNC(=O)c1c(N)sc2c1CCCCC2 do in these assays?
Hsc70 ATP site: 8.5%; MT1-MMP reporter: inactive; WNV protease inh: -0.96

Results for Cc1ccccc1OCC(O)Cn1c(NCc2ccccc2)nc2c1c(=O)[nH]c(=O)n2C (stereo unspecified) ?
Hsc70 ATP site: -2.1%; MT1-MMP reporter: inactive

How did Cc1cnc(C(=O)Nc2ccc(F)cc2)cn1 do in these assays?
Hsc70 ATP site: 0.6%; MT1-MMP reporter: inactive

How did CCOc1ccc(C(C)(C)C)cc1S(=O)(=O)n1nc(C)cc1C do in these assays?
Hsc70 ATP site: 1.6%; MT1-MMP reporter: inactive

Results for COC(=O)NC(Nc1sc2c(c1C(N)=O)CCCC2)(C(=O)OC)C(F)(F)F (stereo unspecified) ?
Hsc70 ATP site: 1.1%; MT1-MMP reporter: inactive; WNV protease inh: -0.03

How did COc1ccc(CN2CCn3ncc(C(=O)Nc4cccc(C)c4)c3C2=O)cc1 do in these assays?
Hsc70 ATP site: -1.4%; MT1-MMP reporter: inactive

How did O=c1cc(CN2CCN(CCO)CC2)c2cc3c(cc2o1)CCC3 do in these assays?
Hsc70 ATP site: 2.5%; MT1-MMP reporter: inactive; WNV protease inh: 1.8

How did Cc1cc2cc(CNC(=O)c3ccc4c(c3)OCO4)ccc2[nH]1 do in these assays?
Hsc70 ATP site: -2.6%; MT1-MMP reporter: inactive; WNV protease inh: 1.1

Results for O=C(CC1CCS(=O)(=O)C1)NC1CCCCC1 (stereo unspecified) ?
Hsc70 ATP site: 0.7%; MT1-MMP reporter: inactive; WNV protease inh: -1.2

How did Clc1ccc(OCCn2ccnc2)c(Cl)c1 do in these assays?
Hsc70 ATP site: 4.6%; MT1-MMP reporter: inactive; WNV protease inh: -0.8

How did CCOC(=O)C(C)Sc1nnc(-c2ccccc2O)n1Cc1ccccc1 (stereo unspecified) do in these assays?
Hsc70 ATP site: 0.2%; MT1-MMP reporter: inactive; WNV protease inh: 0.78

Results for CCc1c(C)c2cc(Cl)c(O)c(CN3CCCCC3)c2oc1=O ?
Hsc70 ATP site: 2.5%; MT1-MMP reporter: inactive; WNV protease inh: 0.17

How did COc1ccc(Nc2nc(N)nc(CSc3nccc(C)n3)n2)cc1 do in these assays?
Hsc70 ATP site: 2.4%; MT1-MMP reporter: inactive

Results for Cc1ccc(S(=O)(=O)N2CCCC(C(=O)NC3=NCCS3)C2)cc1 (stereo unspecified) ?
Hsc70 ATP site: 0.6%; MT1-MMP reporter: inactive; WNV protease inh: -0.3

Results for O=S(=O)(c1cccc2cccnc12)N(CCO)CCO ?
Hsc70 ATP site: -0.9%; MT1-MMP reporter: inactive; WNV protease inh: 1.4

5 consecutive compounds out of the list so far:
How did CCOC(=O)C(C)Sc1nnc(-c2ccccc2O)n1Cc1ccccc1 (stereo unspecified) do in these assays?
Hsc70 ATP site: 0.2%; MT1-MMP reporter: inactive; WNV protease inh: 0.78

Results for CCc1c(C)c2cc(Cl)c(O)c(CN3CCCCC3)c2oc1=O ?
Hsc70 ATP site: 2.5%; MT1-MMP reporter: inactive; WNV protease inh: 0.17

How did COc1ccc(Nc2nc(N)nc(CSc3nccc(C)n3)n2)cc1 do in these assays?
Hsc70 ATP site: 2.4%; MT1-MMP reporter: inactive

Results for Cc1ccc(S(=O)(=O)N2CCCC(C(=O)NC3=NCCS3)C2)cc1 (stereo unspecified) ?
Hsc70 ATP site: 0.6%; MT1-MMP reporter: inactive; WNV protease inh: -0.3

Results for O=S(=O)(c1cccc2cccnc12)N(CCO)CCO ?
Hsc70 ATP site: -0.9%; MT1-MMP reporter: inactive; WNV protease inh: 1.4

Source: PubChem
